Bioassay records as filed in PubChem BioAssay.
SARS PLpro yeast = inhibitors of SARS-CoV papain-like protease in yeast; S. cerevisiae expressing SARS-CoV PLpro, growth rescue; control for the full effect not named in the record; Potency, µM (titrated, usually from 32.9 µM), for the others: at the highest dose activity, positive = growth rescue; 0.19% of 330,000 active; active means well fitted rising curve with a large enough effect; inconclusive means small, poorly fitted or top-dose-only effect; inactive means no such curve, though single readings can be large or run the other way; note: 0% is about no effect; nearly all actives have a fitted effect of over 55% in size; growth read by luminescence after 48 h
NS1 inh = influenza NS1 inhibition; S. cerevisiae slowed by influenza A NS1, growth recovery by OD600; Potency, µM (highest dose often 46.1 µM), inactives show at the top dose activity, positive = more growth; 0.4% of 270,000 active; AID 2326; active means well fitted rising curve with a large enough effect; inconclusive means small, poorly fitted or top-dose-only effect; inactive means no such curve, though single readings can be large or run the other way; note: nearly all actives have a fitted effect of over 50% in size
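Read-out: OD600 growth recovery of NS1-expressing budding yeast. Cells grown overnight at 30C in -URA glucose medium, washed, resuspended and diluted 1:100 in 2% galactose assay medium, pH 6.0. Same strain lacking NS1 served as positive control.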
RE007 growth inh = less growth of the S. pombe RE007 Vpr strain | 0.21% of 360,000 active | Potency, µM (highest dose often 92.2 µM), inactives show top-dose activity change, negative = less growth | S. pombe RE007 Vpr strain, BacTiter-Glo ATP luminescence, 24 h; control for the full effect not named in the record; active = well fitted falling curve with a large enough effect; inconclusive = small, poorly fitted or top-dose-only effect; inactive = no such curve, though single readings can be large or run the other way;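 note: % is set by controls: 0 for no effect and ±100 for the full control effect; nearly all actives have a fitted effect of over 50% in size; the assay follows cell death caused by Vpr and the record does not say whether a fall means rescue or toxicity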
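Fission yeast strain RE007, carrying one chromosomally integrated HIV-1 vpr copy, was seeded at OD 0.01 in PMG+AL medium with 23 nL pinned compound. After 24 h at 30 °C and 99% humidity, viability was read by BacTiter-Glo luminescence.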
Marburg entry inh = blocks Marburg virus binding to or entry into cells | Marburg virus pseudotyped entry inhibition, cell reporter; control for the full effect not named in the record; about a third of the inactives were read at about 46 µM | Potency, µM (series often up to 37.8 µM), inactives show at the top dose activity change, negative = inhibition, most hits filed as inhibitors | 1.8% of 300,000 active | AID 540276; active = well fitted inhibition curve with a large enough effect; inconclusive = small, poorly fitted or top-dose-only effect, or effect the other way; inactive = flat fitted curve, though single readings scatter; tested in HEK293 cells; about a fifth of its hits are not listed in these tables; note: % is set by controls: 0 for no effect and ±100 for the full control effect; luciferase read-out
Cruzain inh noDet = blocks cruzain activity in detergent-free assay | purified cruzain, Z-FR-AMC fluorescence, no detergent | 2.3% of 200,000 active | P25779 | Potency, µM, without a hit: max response, negative = inhibition, hits mostly inhibitors;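 note: plate controls were enzyme without inhibitor for no effect and buffer without enzyme for full effect; nearly all actives have a fitted effect of over 40% in size; top concentration of the series not given in the record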
Target sequence (P25779 123-467 limits assumed): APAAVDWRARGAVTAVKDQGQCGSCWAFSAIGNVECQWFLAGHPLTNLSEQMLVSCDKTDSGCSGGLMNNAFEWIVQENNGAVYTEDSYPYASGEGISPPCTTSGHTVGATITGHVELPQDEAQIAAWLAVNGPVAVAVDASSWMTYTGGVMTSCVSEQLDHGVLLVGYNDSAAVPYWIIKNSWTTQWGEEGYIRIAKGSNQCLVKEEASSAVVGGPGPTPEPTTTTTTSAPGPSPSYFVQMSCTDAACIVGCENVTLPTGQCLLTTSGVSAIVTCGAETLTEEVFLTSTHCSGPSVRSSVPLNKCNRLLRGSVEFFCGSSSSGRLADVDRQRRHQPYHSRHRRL
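Detergent-free condition (0.00005% Triton X-100) in acetate buffer pH 5.5 with DTT. 1.5 nM enzyme and compound were pre-mixed 15 min, then 2 uM Z-FR-AMC substrate added; reaction progress from fluorescence change between first and third reads (60 s).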
LASV entry inh = Lassa virus entry inhibition | Lassa virus pseudotype entry inhibition, cell reporter; control for the full effect not named in the record | Potency, µM (series often up to 37.9 µM), without a hit: at the highest dose activity change, negative = inhibition, most hits filed as inhibitors | 1.2% of 300,000 active | AID 540256; active means well fitted inhibition curve with a large enough effect; inconclusive means small, poorly fitted or top-dose-only effect, or effect the other way; inactive means flat fitted curve, though single readings scatter; tested in HEK293 cells; note: % is set by controls: 0 for no effect and ±100 for the full control effect; nearly all actives have a fitted effect of over 50% in size; luciferase read-out
Cruzain inh Det = inhibitors of Trypanosoma cruzi cruzain with detergent. Potency, µM, without a hit: max response, negative = inhibition, hits mostly inhibitors. 0.43% of 200,000 active. purified cruzain, Z-FR-AMC fluorescence, 0.01% Triton. AID 1478. P25779;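 note: plate controls were neutral wells for no effect and buffer without enzyme for full effect; nearly all actives have a fitted effect of over 40% in size; top concentration of the series not given in the record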
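Sodium acetate buffer (100 mM, pH 5.5) containing 5 mM DTT and 0.01% Triton X-100 hosted 1.5 nM cruzain and test compound for 15 min at room temperature. Cleavage of 2 uM Z-FR-AMC was then tracked by fluorescence.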
StopGo reporter = lowers the luciferase signal of an FMDV 2A StopGo reporter | 1.2% of 410,000 active | human cells with a luciferase reporter of 2A StopGo recoding; control for the full effect not named in the record | Potency, µM (series often up to 57.9 µM), inactives show at the highest dose signal change, negative = less light; active = well fitted falling curve with a large enough effect; inconclusive = small, poorly fitted or top-dose-only effect; inactive = no such curve, though single readings can be large or run the other way; tested in HEK293T cells; note: % is set by controls: 0 for no effect and ±100 for the full control effect; nearly all actives have a fitted effect of over 45% in size; luciferase light after 4 h
* = called active by the depositor; u = inconclusive; x = no result given; & = joins results of further samples; [ ] = remark or other dose. Unless noted, calls come from the whole dose curve; as a rule, active = well fitted curve in the direction sought with a large enough effect; inconclusive = small, poorly fitted or top-dose-only effect, or another doubt; inactive = no such curve, though single readings can be large; an effect the other way counts as inactive or inconclusive. Potency is the fitted concentration of half-maximal effect.

nr	mol	SARS PLpro yeast	NS1 inh	RE007 growth inh	Marburg entry inh
1	C[N+]1(C)CCc2cc3c(cc2C1C1OC(=O)c2c1ccc1c2OCO1)OCO3 (centres undefined)	x	-3%	x	-21%
2	CCOCCOC(=O)COc1ccc2c(=O)c(Oc3ccc(OC)cc3)coc2c1	2%	1%	12%	x
3	CCOC(=O)C1=NNC(C(=O)c2ccccc2)C1c1ccc(OC)cc1 (centres undefined)	x	x	-11%	2%
4	CCCc1nc(SCC(=O)N2CCc3ccccc3C2)c2ccccc2n1	-24%	-10%	2%	u
5	COc1cccc(CNC(=O)C2CCC(CNS(=O)(=O)c3ccc(Br)s3)CC2)c1 (centres undefined)	x	x	x	2%[46.1 µM]
6	CCn1c(CNC(=O)COc2ccc(C(C)C)cc2)nnc1SCC(=O)Nc1ccc(F)cc1	5%	-2%	1%	-13%
7	NNc1nc(-c2ccccc2)c2cc(Cl)ccc2n1	-1%	8%	-23%	-4%&-4%[46.1 µM]
8	CCOC(=O)N1CCC(NC(=O)C(CC(C)C)NC(=O)C2CCC(C)CC2)CC1 (centres undefined)	-5%	9%	-3%	-3%

nr	Cruzain inh noDet	LASV entry inh	Cruzain inh Det	StopGo reporter
1	-7%	x	4.7%	-11%
2	x	x	x	-4%
3	x	13%	x	-13%
4	-2%	-23%	-14%	u
5	5%	-10%[46.1 µM]	-5.6%	-21%
6	u	u	-1.3%	x
7	x	-28%	x	-11%
8	18%	3%	-5.0%	3%

Single entries from above:
For Cruzain inh Det, CCCc1nc(SCC(=O)N2CCc3ccccc3C2)c2ccccc2n1 is entered as -14%
For Cruzain inh noDet, C[N+]1(C)CCc2cc3c(cc2C1C1OC(=O)c2c1ccc1c2OCO1)OCO3 (centres undefined) is entered as -7%
For Marburg entry inh, CCOC(=O)C1=NNC(C(=O)c2ccccc2)C1c1ccc(OC)cc1 (centres undefined) is entered as 2%
For Cruzain inh Det, CCOC(=O)N1CCC(NC(=O)C(CC(C)C)NC(=O)C2CCC(C)CC2)CC1 (centres undefined) is entered as -5.0%

Other compounds
nr	mol	SARS PLpro yeast	NS1 inh	RE007 growth inh	Marburg entry inh
9	COc1ccc(NS(=O)(=O)c2cccc(C(=O)NCC(c3ccccc3OC)N3CCCC3)c2)cc1 (centres undefined)	5%	x	-26%	u
10	COc1ccc2c(c1OC)C(=O)OC2Nc1nc(-c2ccccc2)cs1 (centres undefined)	2%	12%	-6%	u
11	CC1CCN(S(=O)(=O)c2ccc3nc(Nc4ccc(C#N)cc4)ccc3c2)CC1	x	x	x	x
12	O=C(NCc1ccccc1)C1CCC1	-16%	2%	7%	-25%
13	O=C(Nc1ccccc1)c1cccnc1N1CCCC1	-8%	2%	6%	-5%
14	CCN1C(=O)N[C@@H](c2cccc(C(F)(F)F)c2)[C@H](C(C)=O)[C@H]1C	x	x	-3%	-16%&-16%&-16%[14.2 µM]
15	O=C(Cc1ccccc1)Oc1coc(CSc2ncccn2)cc1=O	-1%	x	0%	7%[46.1 µM]
16	Cc1ccc2nc(SCC(=O)c3c(N)n(C)c(=O)n(C)c3=O)[nH]c2c1	-3%	x	0%	-2%[46.1 µM]

nr	Cruzain inh noDet	LASV entry inh	Cruzain inh Det	StopGo reporter
9	x	-19%	x	-23%
10	8%	u	-1.4%	16µM*
11	32µM*	-2%[46.1 µM]	-5.7%	u
12	-7%	20%	1.9%	-10%
13	-4%	u	1.4%	10%
14	x	u	x	-13%
15	x	17%[46.1 µM]	x	-18%
16	x	-15%[46.1 µM]	x	-12%

The closing two entries of the part before lead into the next.
nr	mol	SARS PLpro yeast	NS1 inh	RE007 growth inh	Marburg entry inh
15	O=C(Cc1ccccc1)Oc1coc(CSc2ncccn2)cc1=O	-1%	x	0%	7%[46.1 µM]
16	Cc1ccc2nc(SCC(=O)c3c(N)n(C)c(=O)n(C)c3=O)[nH]c2c1	-3%	x	0%	-2%[46.1 µM]
17	CN1C(=O)N(C)C(=O)C2(Cc3c(nc4ccccn4c3=O)N3CCC(Cc4ccccc4)CC32)C1=O (centres undefined)	1%	-51%	x	x
18	Cc1ccc(C([O-])=C(C(=S)NCc2ccccc2)[n+]2cccc(CO)c2)cc1[N+](=O)[O-]	x	x	-5%	5%[46.1 µM]
19	COc1cccc(CNC(=O)CCS(=O)(=O)c2cccc3nonc23)c1	-1%	-12%	u	10%
20	O=C(NCCc1ccccc1)C1(c2ccccc2)CCCC1	1%	-8%	16%	-18%
21	Cc1ccc(C)c(S(=O)(=O)NCc2cccnc2)c1	-22%	-3%	6%	16%
22	Cc1cc(C)n(CC(=O)NNC(=O)c2cccc(C(F)(F)F)c2)n1	2%	0%	18%	x
23	O=C1CN(Cc2nc3cc(Cl)ccc3c(=O)[nH]2)CCN1	-1%	2%	-2%	21%[46.1 µM]
24	COc1ccccc1N1CCN(C(=O)C2CCCCN2S(=O)(=O)c2ccc(C)cc2)CC1 (centres undefined)	-1%	-5%	10%	x

nr	Cruzain inh noDet	LASV entry inh	Cruzain inh Det	StopGo reporter
15	x	17%[46.1 µM]	x	-18%
16	x	-15%[46.1 µM]	x	-12%
17	u	x	-2.8%	x
18	x	16%[46.1 µM]	x	44%[activator]
19	-1%	u	6.7%	6%
20	x	0%	x	-22%
21	17%	21%[14.3 µM]	3.0%	62%[activator]
22	x	x	x	-19%
23	x	u	x	-9%
24	x	x	x	-20%

Next results follow.
nr	mol	SARS PLpro yeast	NS1 inh	RE007 growth inh	Marburg entry inh
25	COc1ccccc1NC(=O)c1ccc(NC(=O)COC(=O)CCC2CCCC2)cc1	-23%	-12%	-8%	u
26	CC(C)Cc1nnc(NC(=O)CCC(=O)N2CCN(CCOC(c3ccccc3)c3ccccc3)CC2)s1	4%	-20%	-10%	u
27	Cn1c(SCC(=O)Nc2ccc(Cl)cc2F)nnc1-c1ccco1	0%	-19%	4%	u
28	O=C1COc2ccc(C(=O)CSc3nnc(Cc4cccs4)n3-c3ccc(Cl)cc3)cc2N1	1%	18%	7%	u
29	COc1cc(/C=C(\C#N)c2nc3ccccc3[nH]2)c([N+](=O)[O-])cc1OCc1ccccc1	-7%	20%	-2%	u
30	CCC(=O)Nc1nc(C)c(-c2csc(Nc3cccc(C(=O)O)c3)n2)s1	-1%	x	-4%	u
31	CC(=O)c1ccc(NC(=O)c2cccc(S(=O)(=O)N3CCN(C)CC3)c2)cc1	4%	11%	8%	3%[46.1 µM]
32	COc1cccc(NC(=O)c2oc3ccccc3c2NC(=O)C(C)(C)C)c1	-8%	-44%	-15%	u

nr	Cruzain inh noDet	LASV entry inh	Cruzain inh Det	StopGo reporter
25	18%	9%	-8.6%	-17%
26	u	-7%	-11%	-18%
27	x	-11%[46.1 µM]	x	17%
28	7%	-21%	-3.0%	-18%
29	32µM*	u	-5.2%	-24%
30	x	14%	x	24%
31	x	14%	x	0%
32	2%	u	-9.4%	-21%

Additional entries:
nr	mol	SARS PLpro yeast	NS1 inh	RE007 growth inh	Marburg entry inh
33	COc1ccccc1NC(=O)c1ccc(NC(=O)COC(=O)CC(NC(=O)c2ccccc2Cl)c2ccccc2)cc1 (centres undefined)	u	u	9%	7%[46.1 µM]
34	NC(=O)c1noc(C(=O)N(CC(=O)NC2CCCC2)Cc2ccc3c(c2)OCO3)c1N	5%	6%	0%	-6%[46.1 µM]
35	CCCCN(CC)CCCNC(=O)CC1Oc2ccccc2NC1=O (centres undefined)	2%	-10%	-1%	27%
36	CC(=O)c1c(-c2ccccc2)c2cc(Cl)ccc2n(C)c1=O	3%	-15%	1%	-26%[46.1 µM]
37	O=C(NC1CCCCC1)C(c1ccc2ncccc2c1)N(Cc1ccc(F)cc1)C(=O)c1cccs1 (centres undefined)	-1%	18%	7%	u
38	CCn1c(CNS(=O)(=O)c2ccc(Br)cc2)nnc1SC	1%	-4%	11%	-1%[46.1 µM]
39	CCC(=O)N1N=C(c2c(O)n(CCc3ccccc3)c(=O)[nH]c2=O)CC1c1ccc(OC)c(OC)c1 (centres undefined)	1%	9%	8%	u
40	COc1cccc(-c2nc3c(C#N)c[nH]n3c2NC2CCCCC2)c1OC	x	x	x	14%[46.1 µM]

nr	Cruzain inh noDet	LASV entry inh	Cruzain inh Det	StopGo reporter
33	20µM*	17%[46.1 µM]	-5.9%	-7%
34	u	11%	-0.3%	-10%
35	1%	u	-11%	15%
36	x	-5%[46.1 µM]	x	-15%
37	10%	u	3.7%	x
38	x	4%[46.1 µM]	x	22%
39	x	u	x	-16%
40	-5%	13%[46.1 µM]	-0.6%	-11%

Later entries
nr	mol	SARS PLpro yeast	NS1 inh	RE007 growth inh	Marburg entry inh
41	CCOc1ccc(C(=O)Nc2cc(-c3cn4cccnc4n3)ccc2C)cc1OCC	x	x	x	x
42	O=[N+]([O-])c1cc(Cl)cc2c1nc(NCCO)c1ccccc12	-9%	-10%&-10%	-9%	u
43	CCOC(=O)/C(C#N)=C/c1c(N2CCN(c3cccc(Cl)c3)CC2)nc2c(C)cccn2c1=O	-2%	12%	-6%	x
44	COc1ccc(N(C(=O)c2ccncc2)S(=O)(=O)c2ccc3c4c(cccc24)C(=O)N3C)cc1	18%	2%	-6%	-29%[46.1 µM]
45	Cc1cccc(NS(=O)(=O)c2nnc(NC(=O)c3ccc(C)c(C)c3)s2)c1	4%	-5%	-12%	x
46	CCOC(=O)CC1NCCc2c1[nH]c1ccc(OC)cc21 (centres undefined)	2%	3%	9%	11%
47	CCOc1cc(/C=N/NC(=O)c2ccc(-c3csc(Nc4ccc(C)cc4)n3)cc2)ccc1OCC(=O)O	2%	x	0%	u
48	CCOc1ccc(-c2csc(NC(=O)c3ccco3)n2)cc1	-6%	-6%	6%	x

nr	Cruzain inh noDet	LASV entry inh	Cruzain inh Det	StopGo reporter
41	6%	14%[46.1 µM]	-0.2%	-5%
42	1%	-9%[46.1 µM]	-1.3%	-7%
43	x	x	x	-16%
44	x	-30%	x	31%[activator]
45	x	x	x	90%[activator]
46	x	-17%	x	4%
47	x	-3%[46.1 µM]	x	30%[activator]
48	x	x	x	39%[activator]
